Source: PubChem (Broad Institute)
Beta cell apopt: beta cell apoptosis inhibition. INS-1E cytokine-induced death, ATP luminescence, 48 h; percent of positive-control rescue, neutral wells zero. protection from apoptosis, % (no concentration beside the values). 0.8% of 300,000 active;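 active = all replicates at 75% or more, or half of them and the mean; inconclusive = half reach 75% but not the mean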;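 note: 0% = cytokine-treated negative control wells and 100% = positive control rescue; higher means more ATP so stronger rescue from cytokine killing; wells of about 40 µL received 100 nL stock; the first replicate is given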
FGF22 binding: FGF22 (human) thermal shift binding | recombinant FGF22 thermal shift, SYPRO orange fluorescence; percent of sucrose octasulfate shift, DMSO zero | 1.5% of 340,000 active | calls only at 9.99 µM | Q9HCT0;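 active = melting point raised past a set limit in the mean and every replicate; inconclusive = no clear call; three in four hits are not shown here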
Target sequence (Q9HCT0 whole entry, looked up): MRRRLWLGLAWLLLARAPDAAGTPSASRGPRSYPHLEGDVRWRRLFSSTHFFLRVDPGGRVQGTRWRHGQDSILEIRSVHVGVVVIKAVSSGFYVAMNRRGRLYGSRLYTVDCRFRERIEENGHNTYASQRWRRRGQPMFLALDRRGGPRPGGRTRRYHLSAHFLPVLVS
RanGTP-Impb inh: disruptors of Ran-importin-beta complex formation – biochemical, FRET, CFP-Ran, YFP-importin-beta, homogeneous, primary screen; cell-free CFP-Ran/YFP-importin-beta FRET ratio; inhibition, % (concentration not given with the values); 1.1% of 300,000 active;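 active = most replicates above 15%; inconclusive = exactly half above 15%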;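 note: 0% = DMSO wells and 100% = Ran loaded with GDP instead of GTP; wells of about 40 µL received 100 nL stock; the first replicate is given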
MLL AF4-AF9 inh: inhibitors of human MLL-AF4/AF9 interaction; P42568; AlphaScreen, biotin-AF4 peptide binding to FLAG-AF9; inhibition, % at 10 µM; 0.47% of 350,000 active; AID 651704;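 active = every replicate reaching a set inhibition limit, whatever the replicate mean, cut at about 25% in these data; inconclusive = mean inhibition reaches that limit but some replicates miss it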;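 note: 0% = plate neutral control median and 100% = total signal loss; the record names both 10 and 1 µM as test concentration; the first replicate is given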
Target sequence (P42568 whole entry, looked up): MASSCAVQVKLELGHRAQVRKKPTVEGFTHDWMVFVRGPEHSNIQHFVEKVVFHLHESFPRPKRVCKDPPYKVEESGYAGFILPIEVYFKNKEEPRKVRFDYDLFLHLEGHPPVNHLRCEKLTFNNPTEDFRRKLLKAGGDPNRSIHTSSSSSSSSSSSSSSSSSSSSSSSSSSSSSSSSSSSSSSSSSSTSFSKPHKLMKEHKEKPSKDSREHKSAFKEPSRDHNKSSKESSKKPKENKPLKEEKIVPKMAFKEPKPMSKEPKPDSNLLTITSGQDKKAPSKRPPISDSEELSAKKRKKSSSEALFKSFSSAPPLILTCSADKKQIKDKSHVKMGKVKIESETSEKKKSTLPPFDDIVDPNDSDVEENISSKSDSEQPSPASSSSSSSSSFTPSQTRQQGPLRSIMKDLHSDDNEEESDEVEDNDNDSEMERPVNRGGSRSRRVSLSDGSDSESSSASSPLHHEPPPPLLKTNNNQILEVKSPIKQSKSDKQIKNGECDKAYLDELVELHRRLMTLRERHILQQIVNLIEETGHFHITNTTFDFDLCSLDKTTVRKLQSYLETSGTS
ALR inh: blocks human ALR sulfhydryl oxidase activity | P55789 | purified ALR, DTT oxidation, H2O2 HRP-luminol luminescence | inhibition, % (concentration not given with the values) | 3.8% of 290,000 active | AID 485317;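 active = mean and each replicate at 75% or more; inconclusive = only one of the two met; inactive = neither met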;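 note: stock transfer was 7.5 nL into about 7.5 µL; 0% = neutral wells and 100% = wells with inactivated enzyme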
Target sequence (P55789 whole entry, looked up): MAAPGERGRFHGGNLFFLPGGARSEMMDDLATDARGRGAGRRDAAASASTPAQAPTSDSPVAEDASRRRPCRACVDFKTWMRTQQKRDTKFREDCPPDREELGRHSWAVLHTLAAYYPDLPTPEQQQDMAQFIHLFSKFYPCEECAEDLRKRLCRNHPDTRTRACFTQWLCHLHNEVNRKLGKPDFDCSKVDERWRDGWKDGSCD
T cruzi repl: T. cruzi replication inhibition. inhibition, % (concentration not given with the values). 1.4% of 300,000 active. T. cruzi beta-gal in NIH3T3, luminescence, 90 h;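 active = mean inhibition across valid replicates above about 55%, limit read from the data; inconclusive = mean below that limit but half or more replicates reach it; inactive = mean below it, under half of replicates reach it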;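 note: signal also drops with host cell toxicity which is not excluded here; 0% = plate median of DMSO wells and 100% = zero luminescence signal; higher percent means less beta-gal luminescence so fewer parasites; stock transfer was 50 nL into about 50 µL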
rRNA inh HTS: selective bacterial rRNA inhibition in E. coli. E. coli WT GFP vs humanized-ribosome RFP mutants, fluorescence, 24 h; stronger effect = lower value; DMSO median 0, no signal -100. GFP signal change (wild-type ribosome), % (test concentration not listed). 1.6% of 350,000 active. AID 720706;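 active = significant combined selectivity score with lowered wild-type GFP, culture density cut under 30%, mutant RFP and density less affected; inactive = any of these conditions unmet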; note: one replicate is shown; some compounds called inactive have numbers as strong as hits
Calb FLC: C. albicans growth modulation with fluconazole | C. albicans CaCi-2 (fluconazole-resistant clinical isolate) + fluconazole, Alamar Blue growth, 48 h | growth inhibition, % (no concentration beside the values) | 0.57% of 300,000 active | AID 1979;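 active = most replicates above 75%; inconclusive = exactly half above 75%; inactive = most below 75%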;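 note: all wells also contain fluconazole at 8 µg/ml as a sub-toxic cotreatment; 0% = median of DMSO wells and 100% = median of geldanamycin control wells; wells of about 8 µL received 7.5 nL stock; the first replicate is given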
rRNA inh HTS OD600: second read-out of rRNA inh HTS, no call of its own (marks repeat the call); OD600 change, %; measured here: OD600 growth;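 optical density of the mix in the first replicate; 0 = DMSO median and -100 = no signal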
rRNA inh HTS RFP: second read-out of rRNA inh HTS, no call of its own (marks repeat the call); RFP signal change, %; measured here: RFP humanized mutant strains;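 first replicate; 0 = DMSO median and -100 = no signal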
* marks the source's active call; other numbers are inactive results; i = inactive; u = inconclusive; x = no result given; + = active, no number. These rows are one share of the data; rates above refer to the full screens.

SMILES	Beta cell apopt	FGF22 binding	RanGTP-Impb inh	MLL AF4-AF9 inh	ALR inh	T cruzi repl	rRNA inh HTS	rRNA inh HTS OD600	rRNA inh HTS RFP	Calb FLC
CCOCCCNC(=O)c1c[nH]c2cc(OC)ccc2c1=O	u	i	-0.6	-1.4	x	0	2	-3	1.7	13
C=C(C)[C@@H]1CC[C@]2(C(=O)O)CC[C@]3(C)C(CCC4[C@@]5(C)CC[C@H](O)C(C)(C)C5CC[C@]43C)C12 (stereo partly drawn)	3	i	2.0	-1.7	-5	-14	3	-6	-2.1	2
Cc1nnc(N(C)C(=O)c2cccnc2)s1	-1	x	-3.7	x	-4	-4	x	x	x	0
O=C(CCN1C(=O)/C(=C/c2ccc(F)cc2)SC1=S)NC1CCS(=O)(=O)C1 (stereo not drawn)	-12	i	1.8	-1.0	-11	-6	2	-3	0.6	4
Cc1ccc(C)c(NC(=O)CN(C)C(=O)Cn2c(=O)oc3ccccc32)c1	x	i	-1.2	0.0	-17	-11	1	-2	0.1	-3
CCc1cccc(CC)c1N(COC)C(=O)Cn1ccccc1=N	-7	x	u	x	7	-5	x	x	x	-1
COc1ccc(NC(=O)CN(C)S(=O)(=O)c2ccc3c(c2)n(C)c(=O)c(=O)n3C)cc1	2	i	-0.1	-3.3	2	-7	6	13	-3.3	12
COc1ccc(NC(=O)c2sc3nc(-c4cccnc4)ccc3c2N)cc1OC	-5	i	-24	-1.0	-5	9	x	x	x	7
Cn1c(=O)oc2cc(S(=O)(=O)N3CCCC(C(=O)Nc4ccccn4)C3)ccc21 (stereo not drawn)	0	i	-2.6	-9.7	-8	-5	3	3	-0.6	2
O=C(Nc1ccc2nc3n(c(=O)c2c1)CCCC3)c1cccc(F)c1	-6	i	2.5	-2.0	-5	2	0	-5	-0.3	-5
COc1ccc(-c2onc(C)c2-c2cnn(-c3ccccc3)c2)c(O)c1C	8	i	-1.7	-0.4	16	19	-29	-33	-3.3	u
O=C(CN(Cc1ccco1)C(=O)CNS(=O)(=O)c1ccc(F)cc1)NCc1ccc(F)cc1	-1	x	0.5	x	-6	10	x	x	x	9
CCCCCCCCCCCCS(=O)(=O)CCC(=O)O	-2	i	2.5	-2.2	x	-10	-5	-6	0.5	11
Cc1ccnc(SCC(=O)N2CCCc3ccccc32)n1	-1	i	0.3	-2.4	-5	-3	-2	-8	-3.7	5
CCCCOc1ccc(C(=O)NCC(=O)NCC(c2cccs2)N2CCOCC2)cc1 (stereo not drawn)	5	i	x	6.5	-26	x	0	4	0.6	x
CCCOc1ccc(/C=N/Nc2ccccc2[N+](=O)[O-])c(OCCC)c1	13	x	-2.6	x	-7	-2	x	x	x	-1
O=C(c1ccc2ccccc2c1)N1CCN(c2ccc([N+](=O)[O-])c(N3CCOCC3)c2)CC1	-11	i	-11	8.7	-3	17	-19	-18	2.1	-4
O=C(O)CCc1nc2ccccc2c(=O)[nH]1	1	i	2.9	3.4	x	-9	-17	-26	-6.8	-1
Cc1[nH]n(C(N)=S)c(=O)c1N=Nc1cccc(Cl)c1	18	i	-3.7	0.1	-21	-11	10	16	0.6	-4
CCOc1ccc(NS(=O)(=O)c2ccc(C(=O)NNC(=O)c3ccccc3O)cc2)cc1	-1	+	0.7	16	17	4	-40	-54	5.9	x
Cc1cc(C)cc(NC(=O)[C@H](NC(=O)[C@@H]2Cc3ccccc3CN2)c2ccccc2)c1	-5	x	-1.1	x	-6	22	x	x	x	-23
Cc1cccc(N=C2NC(=O)/C(=C/c3cccnc3)S2)c1C	-10	i	-1.0	0.8	-4	-6	x	x	x	2
Cc1ccc(-c2nc(NC(=O)CSc3ccc4ccccc4n3)ns2)cc1	3	i	5.0	2.9	20	4	6	4	0.8	-4
CC(C)c1ccccc1NC(=S)N1CCN(S(=O)(=O)c2cccs2)CC1	1	x	-1.2	0.5	-1	-11	-10	-6	-1.5	-2
Cc1ccc(CNC(=O)/C(C#N)=C\c2ccc(N(C)C)cc2)cc1	0	x	72*	x	98*	5	x	x	x	-104
COc1cc2[nH]c3ccccc3c2cc1C	x	i	0.3	-2.7	81*	-15	x	x	x	3
O=C(CCl)Nc1cccc(-c2cnc3ccccc3n2)c1	-3	x	1.6	x	-12	38	x	x	x	0
Cc1ccc(S(=O)(=O)N2CCN(C(=O)CCn3nc(C)c(C)c3C)CC2)cc1C	-1	i	u	1.2	0	0	-1	-7	0.3	6
O=C(COC(=O)C1CC(=O)N(Cc2ccco2)C1)c1ccc(OC(=O)c2ccco2)cc1 (stereo not drawn)	-7	x	5.6	x	54	-9	x	x	x	1
CCN(CCn1cccn1)C(=O)C1CCC(=O)N(CCc2cccc(F)c2)C1 (stereo not drawn)	0	i	-0.5	0.5	-3	-9	10	17	1.0	-3
CN(C(=O)c1ccccc1C(=O)OCC(=O)c1ccc(Br)cc1)c1ccccc1	2	i	x	0.7	3	14	-5	-21	3.3	-10
CCCCNC(=NCc1cccc(C(F)(F)F)c1)Nc1ccccc1	7	i	-0.6	2.7	-5	20	0	-22	5.2	-20
COc1ccccc1OCC(=O)NCC(c1cccs1)N1CCOCC1 (stereo not drawn)	-4	i	1.7	0.4	-3	5	7	6	-1.0	-9
CCn1ncc(Cl)c1C(=O)Nc1ccc2c(c1)CCC2	x	i	0.2	-3.9	11	1	-20	-21	-6.6	9
Cc1ccc(S(=O)(=O)/N=C(/Sc2ccccc2C(=O)O)c2ccccc2)cc1	x	i	2.6	-9.4	1	-21	6	5	-3.6	-8
Cc1ccc(N2C(=NC(=O)c3ccccc3)SC3CS(=O)(=O)CC32)cc1 (stereo not drawn)	-4	i	4.1	-1.9	0	5	-9	2	4.2	-2
Cc1occc1C(=O)Nc1sc2c(c1C(N)=O)CCCCC2	0	x	2.3	x	1	-2	x	x	x	0
Nc1c(C(=O)Nc2cccc(F)c2)nnn1-c1cccc(C(F)(F)F)c1	-1	i	3.5	-1.3	x	10	0	3	2.9	43
COc1cc(C(=O)O)c2ccccc2n1	-2	i	-1.4	-1.5	0	0	2	8	1.6	-2
COc1ccc(C2CC(=O)c3cnc(NC(=O)c4ccccc4)nc3C2)c(OC)c1 (stereo not drawn)	2	x	2.1	x	2	-8	x	x	x	8
O=C(Nc1ccc(Cl)cc1Cl)c1ccc2c(c1)OCCO2	8	i	x	0.4	2	x	-2	-3	-1.6	x
COc1ccc2nc(N3C(=O)CC(Cc4ccc(Cl)cc4)C3=O)sc2c1 (stereo not drawn)	-5	i	6.6	-10.0	-4	4	-16	-14	5.1	9
CN(C)C(=O)c1sccc1Oc1ccc(F)cc1[N+](=O)[O-]	-20	i	1.6	-1.8	-18	8	17	12	-1.7	-16
Cc1cc2c(NC(=O)Nc3ccc(F)cc3)cccc2nn1	-6	i	-4.1	x	0	11	-6	-5	54	16
Cc1cccc(C(=O)/C=C2/c3ccccc3CC(C)(C)N2C)c1	1	i	4.3	7.5	1	23	x	x	x	11
O=c1c2ccccc2cnn1-c1ccc(Cl)cc1	-6	x	4.9	x	x	-8	x	x	x	1
COc1ccccc1CNC(=O)CCCC(=O)n1ncc2cc(C)ccc21	-9	i	-4.1	8.7	-4	-17	5	12	-0.2	4
CCn1c(=O)n(CC(=O)NCc2ccco2)c(=O)c2ccccc21	-5	x	6.8	x	3	-23	x	x	x	-2
Cc1ccc(NC(=O)NNC(=O)c2ccccc2)cc1	2	i	-0.9	-15	4	-10	8	-3	2.5	-10
CC(=O)c1ccccc1OC(=O)CCN1C(=O)c2ccccc2C1=O	-3	i	0.3	-2.8	-9	-19	3	4	-0.5	-4
Later entries.
SMILES	Beta cell apopt	FGF22 binding	RanGTP-Impb inh	MLL AF4-AF9 inh	ALR inh	T cruzi repl	rRNA inh HTS	rRNA inh HTS OD600	rRNA inh HTS RFP	Calb FLC
Cc1ccc(N2CCN(S(=O)(=O)N3CCCCCC3)CC2)cc1Cl	1	i	0.4	-4.1	-2	17	7	9	-5.3	u
Cc1ccccc1OCC(=O)Nc1ccccc1N1CCC(C)CC1	x	x	3.4	-3.6	-6	-2	0	-4	-1.0	-3
COc1ccc(CNC(=O)CN(C(=O)c2snc(C(N)=O)c2N)c2ccc(F)cc2)cc1	0	i	2.3	-2.3	x	1	2	-5	2.4	-6
CCOC(=O)c1c(NC(=O)CSc2nc3ccccc3c(=O)n2-c2ccc(F)cc2)sc(C(C)=O)c1C	12	x	0.2	x	-1	20	x	x	x	-7
CC(=O)Nc1ccc(NC(=O)CSc2nc(C)nc3sc(C)c(C)c23)cc1	9	i	-1.3	-0.7	-14	11	14	11	0.9	2
CO/N=C/NC(=O)NOCc1ccc(Cl)cc1Cl	-2	x	0.7	x	-6	-5	x	x	x	-3
CC(C)c1ccc(C(C)NC(=O)C2CCCC2)cc1 (stereo not drawn)	-6	i	0.1	1.5	-9	-8	14	8	2.4	-1
COc1ccc(NC(=O)COC(=O)Cc2c[nH]c3ccccc23)cc1Cl	1	+	x	2.4	-3	x	-46	-58	-6.1	x
Nc1ccccc1N1C(=O)c2cccc3cccc(c23)C1=O	-1	i	4.3	-4.6	-14	-19	-1	8	-0.7	-2
Cc1ccc(NC(=O)C(OC(=O)c2cnc(C)cn2)c2ccccc2)c([N+](=O)[O-])c1 (stereo not drawn)	x	i	2.2	3.8	6	-5	-5	9	3.5	0
O=c1[nH]c(NNC(=S)NC2CCCCC2)nc2c1C1(CCCC1)Cc1ccccc1-2	-2	i	2.1	1.8	x	-12	-4	-5	4.8	21
Cc1cc(C(=O)NNC(=O)CN2C(=O)NC(C)(c3ccccc3)C2=O)c(C)o1 (stereo not drawn)	-1	i	x	0.2	6	-10	9	12	1.7	-2
COc1ccc(/C=C2\CCc3c2nc2ccccc2c3C(=O)O)cc1OC	-1	i	-26	-12	-10	-12	23	0	30	-11
CSCC[C@H](NC(=O)Nc1ccccc1C)C(=O)O	-7	i	-1.2	-0.3	-3	-2	2	1	-2.0	1
COc1ccc(-n2c(SCC(=O)NCC3CCCO3)nc3c(c2=O)SCC3)cc1 (stereo not drawn)	23	i	8.9	1.0	-2	-6	1	6	-1.9	-4
COc1cc(OC)c(C2C(C(=O)Nc3ccc(C)cc3C)=C(C)Nc3ncnn32)cc1OC (stereo not drawn)	3	x	3.1	x	-16	11	x	x	x	1
Cc1ccc(CNC(=O)Cn2c(=O)oc3ccccc32)o1	-4	x	1.1	x	6	-17	x	x	x	-6
CCCCCn1nc(C(=O)OCC(=O)c2c(N)n(C)c(=O)n(C)c2=O)c2ccccc2c1=O	8	i	-1.5	-13	-8	1	-8	-16	2.3	28
